# Screening results from PubChem BioAssay.
# ID4 SMM – binds human ID4 protein on microarray; 31,000 tested, 1.2% active; AID 624137; small molecule microarray, Flag-ID4 binding, fluorescence F/B; calls only; P47928;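 active = spot signal over background at p below 0.07 in all four prints; compounds were printed on slides so no solution concentration is given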;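 note: a binder raises fluorescence above local background on the spot; about 2 pmol printed per array spot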
# Target sequence (P47928 whole entry, looked up): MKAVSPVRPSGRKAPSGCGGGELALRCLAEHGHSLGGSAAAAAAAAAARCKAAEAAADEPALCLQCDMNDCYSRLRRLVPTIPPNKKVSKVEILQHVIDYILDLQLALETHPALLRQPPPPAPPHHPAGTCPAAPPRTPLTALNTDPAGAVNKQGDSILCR
# Calls only; i = inactive; + = active, no number.
SMILES,ID4 SMM
C[C@@H]1CN([C@H](C)CO)S(=O)(=O)c2ccc(C#CC3(O)CCCC3)cc2O[C@H]1CN(C)C(=O)Nc1cccc(F)c1,i
Cc1ccc2oc3c(c(=O)c2c1)C(c1ccc([N+](=O)[O-])cc1)N(CCCN1CCOCC1)C3=O (centres undefined),i
O=C(C[C@H]1CC[C@@H](NC(=O)C2CC2)[C@@H](CO)O1)NC1CCC1,i
N#Cc1c(NC(=O)COc2ccc3c(-c4ccccc4)cc(=O)oc3c2)sc2c1CCC2,i
O=C(C[C@@H]1CC[C@@H](NS(=O)(=O)c2ccccc2)[C@@H](CO)O1)NCCN1CCCCC1,+
Cc1ccc(CC(C(=O)O)C(C)C(=O)Nc2ccc(F)cc2)cc1 (centres undefined),i
Cc1cc(C(F)F)n2nc(C(=O)Nc3cccc(S(=O)(=O)N4CCOCC4)c3)nc2n1,i
Nc1ccc(C(=O)Oc2ccccc2)c(O)c1,i
CC(=O)Nc1ccc(-c2nnc(SCC(=O)Nc3ccc(Cl)cc3Cl)n2C)cc1,i
Cn1c(CN2CCOCC2)nnc1SCC(=O)Nc1ccc2ccccc2c1,i
CCn1c(SCC(=O)Nc2ccc(F)cc2)nnc1-c1cccs1,i
Cc1ccnc(NS(=O)(=O)c2ccc(NC(=O)c3csc4c3CCCC4)cc2)n1,i
COc1ccc(NC(=C(C#N)C#N)C(F)(F)C(F)(F)F)cc1,i
Cc1cc2nnc(SCC(=O)Nc3sc4c(c3C#N)CCC4)n2c2ccccc12,i
C[C@H](CO)N1C[C@H](C)[C@H](CN(C)Cc2cccc(C(F)(F)F)c2)OCc2cnnn2CCCC1=O,i
CO[C@@H](CN(C)S(=O)(=O)c1cn(C)cn1)[C@@H](C)CN(C(=O)Nc1ccc(C(F)(F)F)cc1)[C@H](C)CO,i
CCCC#Cc1cnc2c(c1)C(=O)N([C@@H](C)CO)C[C@@H](C)[C@H](CN(C)C)O2,i
O=C(C[C@@H]1CC[C@H](NC(=O)NC2CCCCC2)[C@@H](CO)O1)NCc1ccccc1,i
COC(=O)CN(c1cc([N+](=O)[O-])ccc1C)S(C)(=O)=O,i
N#Cc1c(NC(=O)CCn2cnc3ccccc3c2=O)oc(-c2ccccc2)c1-c1ccccc1,i
O=C(N[C@H]1CC[C@H](CC(=O)N2CCN(c3ccccc3)CC2)O[C@@H]1CO)c1ccccc1,i
Cc1ccc(S(=O)(=O)N(C)C[C@@H]2Oc3ncc(-c4ccncc4)cc3C(=O)N([C@H](C)CO)C[C@@H]2C)cc1,i
CNC[C@H]1Oc2ncc(-c3cccc(C(=O)N(C)C)c3)cc2C(=O)N([C@H](C)CO)C[C@H]1C,i
COc1ccc(NC(=O)O[C@@H](c2ccc(OCCO)cc2)[C@H](CCO)OC)cc1,i
NC1=NC(=O)C(Cc2cccc(Cl)c2)S1 (centres undefined),i

# Brought forward from above: three compounds, then new ones.
SMILES,ID4 SMM
CNC[C@H]1Oc2ncc(-c3cccc(C(=O)N(C)C)c3)cc2C(=O)N([C@H](C)CO)C[C@H]1C,i
COc1ccc(NC(=O)O[C@@H](c2ccc(OCCO)cc2)[C@H](CCO)OC)cc1,i
NC1=NC(=O)C(Cc2cccc(Cl)c2)S1 (centres undefined),i
CC(C)CC#Cc1cnc2c(c1)C(=O)N([C@H](C)CO)C[C@H](C)[C@@H](CN(C)C(=O)c1ccccc1F)O2,i
C[C@H](CO)N1C[C@H](C)[C@H](CN(C)C)Oc2ccc(NC(=O)Cc3ccccc3)cc2C1=O,i
C[C@H]1CN([C@@H](C)CO)C(=O)c2cc(-c3ccccc3F)cnc2O[C@@H]1CN(C)C(=O)C1CCCCC1,i
C[C@H](CO)N1C[C@H](C)[C@@H](CN(C)C(=O)c2cccc(F)c2)Oc2ncc(C#CCN(C)C)cc2C1=O,i
O=C(Nc1ccc2c(c1)[C@@H]1C[C@@H](CC(=O)N3CCCCC3)O[C@@H](CO)[C@@H]1O2)C1CCC1,i
Cc1noc2ncnc(SCc3ccc(Cl)cc3)c12,i
O=C(Nc1ccc2c(c1)[C@H]1C[C@H](CC(=O)N3CCCCC3)O[C@H](CO)[C@H]1O2)C1CCC1,i
COCC(=O)N(C)C[C@@H]1Oc2cc(C#CCN(C)C)ccc2S(=O)(=O)N([C@H](C)CO)C[C@H]1C,i
CO[C@@H](CN(C)C(=O)c1cnccn1)[C@@H](C)CN([C@@H](C)CO)S(=O)(=O)c1ccc(F)cc1,i
C[C@@H](O)C#Cc1ccc2c(c1)O[C@@H](CN(C)C(=O)CN(C)C)[C@@H](C)CN([C@@H](C)CO)S2(=O)=O,i
Cc1ccc(S(=O)(=O)N[C@H]2C=C[C@@H](CC(=O)O)O[C@@H]2CO)cc1,i
COCC(=O)N[C@H]1CC[C@H](CC(=O)NCc2ccccc2OC)O[C@H]1CO,i
Nc1nnc(SCC(=O)Nc2cc(Cl)cc(Cl)c2)s1,i
CCCn1c(=O)c(C#N)cn(C2CC2)c1=O,i
Nc1cc(=O)[nH]c(S/C=C/c2ccccc2)n1,i
Cc1cccc(-n2c(C)nnc2SCC(=O)Nc2ccc(Br)cc2Cl)c1,i
OC(CN1CCN(C/C=C/c2ccccc2)CC1)Cn1c2ccccc2c2ccccc21 (centres undefined),i
CN(C)C(=O)C[C@H]1C=C[C@@H](NC(=O)C2CC2)[C@H](CO)O1,i
O=C(C[C@@H]1C[C@H]2c3cc(NS(=O)(=O)c4ccccc4)ccc3O[C@H]2[C@H](CO)O1)NCC(F)(F)F,i
Cc1ccc(NC(=O)CCn2cnc3ccccc3c2=O)cc1C,i
O=C(CSc1nnc(-c2cccs2)n1-c1ccccc1)c1ccc(Br)cc1,i
O=C(CSc1nnc(-c2ccco2)n1-c1ccccc1)Nc1ccc(F)cc1,i
CC(NC(=O)CSc1nnc2c3ccccc3n(C)c2n1)c1ccccc1 (centres undefined),i
Cc1cccc(C)c1NC(=O)CN(c1ccc(Cl)c(C(F)(F)F)c1)S(C)(=O)=O,i
COc1ccc(NC(=O)CN(c2ccc(Br)c(C)c2)S(C)(=O)=O)cc1Cl,i

# More compounds follow.
SMILES,ID4 SMM
O=C(CSc1nnc(-c2ccc(Br)cc2)o1)Nc1ccc(Cl)cc1Cl,i
CNC(=O)CN(c1cc(C)ccc1C)S(C)(=O)=O,i
Cc1cc2ncn(CC(O)COC3CCCCC3)c2cc1C (centres undefined),i
Cc1ccc(-c2cc(C(F)F)n3ncc(C(=O)NCCN4CCOCC4)c3n2)cc1,i
CCc1ccc(NC(=O)Cn2cnc3ccccc3c2=O)cc1,i
C[C@H]1CN([C@@H](C)CO)S(=O)(=O)c2ccc(C3=CCCC3)cc2O[C@H]1CN(C)CC1CCOCC1,i
CC(C)OC(=O)N(C)C[C@@H]1OCc2ccccc2-c2ccccc2C(=O)N([C@H](C)CO)C[C@@H]1C,i
O=C(CC1CC1)Nc1ccc2c(c1)[C@@H]1C[C@H](CC(=O)N3CCc4ccccc4C3)O[C@@H](CO)[C@@H]1O2,i
CC(C)c1ccc(NC(=O)CN(C)S(=O)(=O)c2ccc3ccccc3c2)cc1,i
CCC(=O)N[C@H]1C=C[C@@H](CC(=O)OC)O[C@H]1CO,i
O=C(O)C1=C[C@H](c2coc3ccccc3c2=O)C[C@H](OCCCCO)O1,i
C[C@@H]1CN([C@H](C)CO)C(=O)c2cccc(NC(=O)C3CCCCC3)c2O[C@@H]1CN(C)CC1CC1,i
COC(=O)c1c(NC(=O)COc2ccccc2)sc(C)c1-c1ccccc1,i
COC(=O)COc1cccc(NC(=O)c2ccccc2-c2ccccc2C(=O)O)c1,i
Cc1ccc(N(C(C)C(=O)Nc2ccc(Oc3ccccc3)cc2)S(C)(=O)=O)cc1C (centres undefined),i
CNC[C@H]1Oc2ncc(C#Cc3cccc(OC)c3)cc2C(=O)N([C@@H](C)CO)C[C@H]1C,i
COc1ccc(C(=O)NCC(=O)Nc2ccccc2C(F)(F)F)cc1OC,i
Cc1ccccc1CN(C)C[C@H]1OCc2cn(nn2)CCCC(=O)N([C@@H](C)CO)C[C@H]1C,i
CC(C(=O)Nc1ccc(I)cc1)N(c1ccc(Cl)cc1)S(C)(=O)=O (centres undefined),i
C[C@@H](NC(=O)C[C@H]1CC[C@@H](NC(=O)C2CCC2)[C@@H](CO)O1)c1ccccc1,i
CC(Oc1ccc(C(C)(C)C)cc1)C(=O)NCc1ccccn1 (centres undefined),i
O=C(CSc1nnc(-c2ccc(Cl)cc2)n1-c1ccc(F)cc1)Nc1ccccc1F,i
C[C@@H]1CN([C@H](C)CO)C(=O)c2cc(-c3ccccc3F)cnc2O[C@H]1CN(C)C(=O)C1CCC1,i
Cc1c(C(=O)C2C(=O)C(=O)N(Cc3cccnc3)C2c2ccc(F)cc2)cnn1-c1ccccc1 (centres undefined),i
Cc1cc(CNC(=O)c2cc(-c3cccnc3)nc3ccc(Cl)cc23)nn1C,i

# The list continues.
SMILES,ID4 SMM
C[C@@H]1CN([C@H](C)CO)S(=O)(=O)c2ccc(C3=CCCCC3)cc2O[C@H]1CN(C)S(=O)(=O)c1cn(C)cn1,i
CNC[C@H]1OCc2ccccc2-c2c(n(C)c3ccccc23)C(=O)N([C@H](C)CO)C[C@H]1C,i
C[C@H](CO)N1C[C@H](C)[C@H](CN(C)C)Oc2cc(C3=CCCCC3)ccc2S1(=O)=O,i
OCc1c[nH]c2ccccc12,i
O=C(CSc1ncnc2sc3c(c12)CCCC3)N1CCc2ccccc21,i
O=C(O)c1cc(Nc2nc(N3CCOCC3)nc(N3CCOCC3)n2)ccc1Cl,i
C[C@H](CO)N1C[C@H](C)[C@H](CN(C)C)Oc2ccc(NC(=O)C3CCCCC3)cc2CC1=O,i
O=c1ccc2cc(O)c(O)cc2o1,i
COc1ccc(-c2ccc3c(c2)O[C@@H](CN(C)C)[C@H](C)CN([C@@H](C)CO)S3(=O)=O)cc1,i
Cc1cc(N(CC(=O)O)S(C)(=O)=O)ccc1Br,i
CCC(Sc1nnc(-c2ccc(NC(C)=O)cc2)n1C)C(=O)Nc1ccc(Br)cc1 (centres undefined),i
CC(=O)Nc1ccc(NC(=O)CSc2nnc3c4cc(Br)ccc4n(C)c3n2)cc1,i
CS(=O)(=O)Nc1ccc2c(c1)[C@H]1C[C@@H](CC(=O)NCC(F)(F)F)O[C@H](CO)[C@H]1O2,i
CC(C)CC#Cc1cnc2c(c1)C(=O)N([C@@H](C)CO)C[C@@H](C)[C@H](CN(C)CC1CCOCC1)O2,i
O=c1c(O)c(-c2ccc(O)c(O)c2)oc2cc(O)cc(O)c12,i
COC(=O)C[C@@H]1C=C[C@@H](NS(=O)(=O)c2ccccc2F)[C@H](CO)O1,i
C[C@@H](NC(=O)C[C@@H]1C[C@@H]2c3cc(NC(=O)c4cccnc4)ccc3O[C@@H]2[C@@H](CO)O1)c1ccccc1,i
C[C@@H]1CN([C@H](C)CO)C(=O)c2cc(-c3ccccc3)cnc2O[C@H]1CN(C)Cc1ccccn1,i
CCOc1cc(S(=O)(=O)NCc2ccco2)ccc1F,i
CO[C@@H](CN(C)C(=O)c1cc(Cl)cc(Cl)c1)[C@H](C)CN(C(=O)Nc1ccc(F)cc1)[C@H](C)CO,i
Cc1ccc(-c2ccc3c(c2)O[C@@H](CN(C)S(C)(=O)=O)[C@H](C)CN([C@@H](C)CO)S3(=O)=O)cc1,i
CC(NC(=O)Cn1c(-c2nonc2N)nc2ccccc21)c1ccccc1 (centres undefined),i
O=C1c2ccccc2C2=Nc3ccccc3SC(c3ccsc3)C12 (centres undefined),i
CCC(c1nc2ccccc2c(=O)n1-c1cccnc1)N1C(=O)c2ccccc2C1=O (centres undefined),i
O=C(NCc1ccccn1)Nc1ccccc1Cl,i

# Continued.
SMILES,ID4 SMM
Cc1ccc(-c2noc(CSc3nnc(-c4cccs4)n3-c3ccccc3)n2)cc1,i
C[C@@H]1O[C@@H](OC[C@H]2O[C@@H](OCCc3ccc(O)c(O)c3)[C@H](O)[C@@H](O)[C@@H]2OC(=O)/C=C/c2ccc(O)c(O)c2)[C@H](O)[C@H](O)[C@H]1O,i
COc1ccc(NC(=O)COc2cc(C)c(Br)c(C)c2)c([N+](=O)[O-])c1,i
O=C(C[C@H]1C=C[C@H](NC(=O)C2CC2)[C@@H](CO)O1)NCc1ccccc1Cl,i
COc1ccc(OC)c(NC(=O)Cn2cc(C(=O)C3CC3)c3ccccc32)c1,i
COc1ccc(Cl)cc1N(CC(=O)Nc1cc(Cl)ccc1C)S(C)(=O)=O,i
Cc1cccc(C)c1OCC(=O)Nc1ccc([N+](=O)[O-])cc1O,i
C[C@@H]1CN([C@H](C)CO)S(=O)(=O)c2ccc(C#Cc3ccncc3)cc2O[C@@H]1CN(C)S(=O)(=O)c1ccc(F)cc1,i
C=CCN1C(=O)[C@]2(O[C@H](CCO)[C@@H]([Si](C)(C)c3ccc(OC)cc3)[C@@H]2C)c2cc(NC(=O)[C@H](C)O)ccc21,i
CC(C)(C)C1CCc2c(sc3ncn(CC(=O)NCc4ccco4)c(=O)c23)C1 (centres undefined),i
COc1cc(NC(=S)NC(=O)C(C)Oc2ccc(Cl)cc2Cl)c(OC)cc1Cl (centres undefined),i

# Some of the entries so far, with bars between the fields:
molecule | ID4 SMM
COc1ccc(NC(=O)COc2cc(C)c(Br)c(C)c2)c([N+](=O)[O-])c1 | i
COc1ccc(Cl)cc1N(CC(=O)Nc1cc(Cl)ccc1C)S(C)(=O)=O | i
COc1ccc(OC)c(NC(=O)Cn2cc(C(=O)C3CC3)c3ccccc32)c1 | i
O=C(C[C@H]1C=C[C@H](NC(=O)C2CC2)[C@@H](CO)O1)NCc1ccccc1Cl | i
C[C@@H]1CN([C@H](C)CO)S(=O)(=O)c2ccc(C#Cc3ccncc3)cc2O[C@@H]1CN(C)S(=O)(=O)c1ccc(F)cc1 | i
Cc1cccc(C)c1OCC(=O)Nc1ccc([N+](=O)[O-])cc1O | i

# This is a subset; rates above refer to the full screens.
